# MgcRacGAP Rac1: MgcRacGAP inhibitors via phosphate release, confirmation, orthogonal assay, biochemical, inorganic phosphate detection, Rac1 (AID 652142) | MgcRacGAP/Rac1F28L GTP hydrolysis, Biomol green phosphate; hits give high values; test concentration not given here; none was called active though about 1 in 100 pass the limit | inhibition, % | 2,400 tested, under 10 active;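 active means inhibition over three standard deviations or about 65%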;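 further: full inhibition control lacks the GAP enzyme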
# An asterisk follows results filed as active; & = joins results of further samples. Only part of the results is shown; count on the stated rates, not on these rows.
SMILES,MgcRacGAP Rac1
COc1cccc(C(=O)Nc2cc3c(cc2N2CCCC2)n(C)c(=O)n3C)c1,26
Cc1cc(C)c2nc(C)cc(N/N=C/c3ccc(O)cc3)c2c1,42
CC1=C/C(=C(/c2cc(C)c(O)c(Br)c2)c2ccccc2S(=O)(=O)O)C=C(Br)C1=O,31
CCN(CC)c1ccc(S(=O)(=O)N2CCOCC2)cc1NC(=O)COC(=O)/C=C/c1ccc(O)c(OC)c1,24
COc1cc(-c2ccc(Nc3ccccc3C(=O)O)c(OC)c2)ccc1Nc1ccccc1C(=O)O,23
CCOc1cc(N2CCOCC2)c(OCC)cc1NC(=O)c1ccc(C)s1,21
O=c1c2cc(F)ccc2sn1-c1ccccc1,78
CC1(C)C2CCC(CN=C(N)CSS(=O)(=O)O)C1C2 (stereo not drawn),54
C/C=C/c1ccc(OCCCCN2CCN(CC)CC2)c(OC)c1,21
CCN(CC)c1ccc(NC(=O)CNCc2ccccc2Cl)c(C)c1,29
COC(=O)c1ccc2c(c1)C(C)(C)C(/C=C/c1ccccc1O)=[N+]2C,48
Cc1cn([C@H]2C[C@H](O)[C@@H](CNCC3=Cc4cc(O)ccc4OC3)O2)c(=O)[nH]c1=O,20
COc1cc2c(cc1NC(=O)C(Cl)Cl)-c1ccc(NC(=O)C(Cl)Cl)cc1C2,13
COc1cc(C2NC(=O)C(C#N)=C(S)N2c2ccccc2)ccc1OC(C)C (stereo not drawn),46
Cc1ccccc1N1C(S)=C(C#N)C(=O)NC12CCCCC2,26
O=C(c1ccccc1)c1coc2ccc(O)c(Cl)c12,19
Nc1ccc(N(c2ccccc2)c2ccc(N)cc2)cc1,20
Oc1ccc(-c2csc(-c3cccnc3)n2)cc1O,27
CC(/C=N/n1c(-c2ccco2)n[nH]c1=S)=C\c1ccccc1,22
Oc1ccccc1/C=N/n1c(-c2ccccc2)n[nH]c1=S,9
COc1ccc(/C=N/Nc2ccccn2)cc1O,24
COc1ccc(C2NC(c3ccc(OC)cc3OC)C(C)C(=O)C2C)c(OC)c1 (stereo not drawn),23
Cc1[nH]nc(-c2ccc(O)c(C)c2O)c1-c1cnn(-c2ccccc2)c1,36
O=C(Nc1ccc(O)cc1)c1ccc2c(c1)C(=O)N(Cc1ccccc1)C2=O,23
COc1cc(/C=C(\C#N)c2nc3ccccc3[nH]2)ccc1O,25
CCCN(CCO)CCCc1ccccc1,29
COc1cc2c(cc1NC(=S)Nc1cccc(C(F)(F)F)c1)oc1ccccc12,9
COc1ccc(N2CCN(C(=O)CCCn3nnnc3CN3CCOCC3)C(C)C2)cc1 (stereo not drawn),23
COc1ccc(CNCc2cccc(OC)c2OC)cc1Br,28
CC1=NN(c2ccccc2)C(=O)/C1=C/C=C/C=C/N(C)C,22
COc1ccc(C(C#N)=C2C=CC(=NO)C=C2)cc1,25
Cc1ccc(-c2n[nH]c(=S)n2/N=C/c2ccc(C(=O)O)cc2)cc1,12
C=CCn1c(CNc2ccc(C)cc2)nnc1SCC(=O)N/N=C/c1ccc(O)cc1O,7
CCOC(=O)c1[nH]c2ccc(OC)cc2c1NC(=O)c1ccccc1C(=O)O,28
CCOC(=O)/C(C#N)=C\c1ccc(O)c(OC)c1,22
C/C(=N\Nc1ccc(S(=O)(=O)N2CCCCC2)cn1)c1ccc(O)cc1,27
Cc1cc(=O)oc2c(O)c(O)ccc12,19
COC(=O)c1c(NC(=O)CCNCc2ccco2)sc2c1CCC2,12
O=S(=O)(c1ccc(Cl)c(NC(=S)N/N=C/c2ccc(O)cc2)c1)N1CCOCC1,24
Clc1cccc(N/N=C/c2ccc(N3CCOCC3)s2)c1,29
COc1ccccc1N1CCN(CCCOc2ccc(F)cc2)CC1,20
CN=c1scc(-c2ccco2)n1/N=C/c1ccc(O)c(O)c1,16
COc1ccc(S(=O)(=O)N2CCC(N3CCN(Cc4ccccc4)CC3)CC2)cc1,15
O=C(Cn1cnc([N+](=O)[O-])n1)N/N=C/c1ccc(O)cc1O,26
Cc1ccc(C)c(-n2sc3ccc(F)cc3c2=O)c1,81
COc1cc(/C=N/NC(=O)CNC(=O)c2ccco2)ccc1O,20
O=C1C=C(Nc2ccc(O)cc2)CC(c2ccco2)C1 (stereo not drawn),22
COc1cc2nc(N3CCNCC3)nc(N)c2cc1OC,41
N#CC1=C(S)N(c2ccccc2)C2(CCCCC2)NC1=O,26
Cc1ccc(C)c(OCCCCN2CCCCC2)c1,32
# New compounds follow:
SMILES,MgcRacGAP Rac1
CCOC(=O)C1Nc2ccc(C(=O)O)cc2C2C=CCC12 (stereo not drawn),29
Cc1nc2ccc(-c3nc4ccc(N)cc4[nH]3)cc2[nH]1,11
CCn1c(C)nc2cc(C(=O)N/N=C/c3cccc(O)c3O)ccc21,18
CCOc1ccc(NCc2cccn2-c2nnc(N3CCC(C(=O)NCCCN4CCCCC4)CC3)s2)cc1,19
S=c1[nH]nc(-c2ccncc2)n1/N=C/C=C/c1ccco1,10
Cc1ccc(/C=C2/C(=O)c3ccc(C(=O)O)cc3C2=O)o1,23
Cc1cccc(-n2nc3c(c2NC(=O)c2ccco2)CSC3)c1C,23
Cc1ccn2c(Nc3ccccc3)c(-c3ccccn3)nc2c1,16
Brc1ccccc1OCCCCCN1CCOCC1,34
O=C1NC2c3c(I)sc(I)c3C(=O)C2O1 (stereo not drawn),15

# An excerpt of these results, bar-delimited:
Compound | MgcRacGAP Rac1
COc1ccc(CNCc2cccc(OC)c2OC)cc1Br | 28
CC1=NN(c2ccccc2)C(=O)/C1=C/C=C/C=C/N(C)C | 22
COc1ccc(C(C#N)=C2C=CC(=NO)C=C2)cc1 | 25
Cc1ccc(-c2n[nH]c(=S)n2/N=C/c2ccc(C(=O)O)cc2)cc1 | 12
C=CCn1c(CNc2ccc(C)cc2)nnc1SCC(=O)N/N=C/c1ccc(O)cc1O | 7
CCOC(=O)c1[nH]c2ccc(OC)cc2c1NC(=O)c1ccccc1C(=O)O | 28
CCOC(=O)/C(C#N)=C\c1ccc(O)c(OC)c1 | 22
C/C(=N\Nc1ccc(S(=O)(=O)N2CCCCC2)cn1)c1ccc(O)cc1 | 27
Cc1cc(=O)oc2c(O)c(O)ccc12 | 19
COC(=O)c1c(NC(=O)CCNCc2ccco2)sc2c1CCC2 | 12
O=S(=O)(c1ccc(Cl)c(NC(=S)N/N=C/c2ccc(O)cc2)c1)N1CCOCC1 | 24
Clc1cccc(N/N=C/c2ccc(N3CCOCC3)s2)c1 | 29
COc1ccccc1N1CCN(CCCOc2ccc(F)cc2)CC1 | 20
CN=c1scc(-c2ccco2)n1/N=C/c1ccc(O)c(O)c1 | 16
COc1ccc(S(=O)(=O)N2CCC(N3CCN(Cc4ccccc4)CC3)CC2)cc1 | 15
O=C(Cn1cnc([N+](=O)[O-])n1)N/N=C/c1ccc(O)cc1O | 26
Cc1ccc(C)c(-n2sc3ccc(F)cc3c2=O)c1 | 81
COc1cc(/C=N/NC(=O)CNC(=O)c2ccco2)ccc1O | 20
O=C1C=C(Nc2ccc(O)cc2)CC(c2ccco2)C1 (stereo not drawn) | 22
COc1cc2nc(N3CCNCC3)nc(N)c2cc1OC | 41
N#CC1=C(S)N(c2ccccc2)C2(CCCCC2)NC1=O | 26
Cc1ccc(C)c(OCCCCN2CCCCC2)c1 | 32
CCOC(=O)C1Nc2ccc(C(=O)O)cc2C2C=CCC12 (stereo not drawn) | 29
Cc1nc2ccc(-c3nc4ccc(N)cc4[nH]3)cc2[nH]1 | 11
CCn1c(C)nc2cc(C(=O)N/N=C/c3cccc(O)c3O)ccc21 | 18
CCOc1ccc(NCc2cccn2-c2nnc(N3CCC(C(=O)NCCCN4CCCCC4)CC3)s2)cc1 | 19
S=c1[nH]nc(-c2ccncc2)n1/N=C/C=C/c1ccco1 | 10
Cc1ccc(/C=C2/C(=O)c3ccc(C(=O)O)cc3C2=O)o1 | 23
Cc1cccc(-n2nc3c(c2NC(=O)c2ccco2)CSC3)c1C | 23
Cc1ccn2c(Nc3ccccc3)c(-c3ccccn3)nc2c1 | 16
Brc1ccccc1OCCCCCN1CCOCC1 | 34
O=C1NC2c3c(I)sc(I)c3C(=O)C2O1 (stereo not drawn) | 15

# A different layout for some results above:
smiles	MgcRacGAP Rac1
COc1ccc(N2CCN(C(=O)CCCn3nnnc3CN3CCOCC3)C(C)C2)cc1 (stereo not drawn)	23
COc1ccc(CNCc2cccc(OC)c2OC)cc1Br	28
CC1=NN(c2ccccc2)C(=O)/C1=C/C=C/C=C/N(C)C	22

# Further records
SMILES,MgcRacGAP Rac1
COc1cc(/C=N/NC(=O)c2cn(-c3cccc(C)n3)cn2)ccc1O,22
O=C(COc1cccc2cccnc12)N/N=C/c1ccc(O)cc1,-1
Cc1ccc(C)c(S(=O)(=O)N2CCN(CC(=O)N3CCc4ccccc4C3)CC2)c1,25
Oc1ccc(/C=N/Nc2ncnc3nc[nH]c23)cc1,34
CCOc1cccc(CNc2ccc(O)cc2)c1OCc1ccc(Cl)cc1Cl,24
CC(=O)N1CCN(c2ccc(NCc3ccc4c(c3)OCO4)cc2)CC1,15
Oc1ccc(-c2csc(NCc3ccco3)n2)cc1,20
C=CCc1cc(OC)ccc1OCCN1CC(C)OC(C)C1 (stereo not drawn),30
COc1cc(/C=C2\C(=O)N(CCC#N)N=C2C)ccc1OCC(=O)Nc1ccccc1,37
Nc1ccc(N=Nc2ccc(N)cc2)cc1,32
CC1CN(CCOCCOc2ccccc2-c2ccccc2)CC(C)O1 (stereo not drawn),12
OCCN(C=NC1=NN(c2cccc(C(F)(F)F)c2)CC1)CCO,26
Cc1ccc2c(C)nc(/N=C(\N)NC(=O)N3c4ccccc4Sc4ccccc43)nc2c1,23&16
CN(Cc1ccccc1)Cc1c(O)ccc2ccccc12,24
COc1ccc(CN2CCN(Cc3ccco3)CC2)cc1OC,5
CCOC(=O)C1CCN(Cc2cccc(Oc3ccccc3)c2)CC1,30
CN(C)c1ccc(/C=N\Nc2ccccn2)cc1,16
Cc1ccc(O)c(N=Cc2sc3ccccc3c2Cl)c1,27
CN(C)CCCNCC(=O)c1c(-c2ccccc2)n(C)c2ccccc12,18
CN(C)CCNc1ccc(CO)c2oc3ccc(O)cc3c(=O)c12,15
Cc1cc(C)n(CC(O)CN2c3ccccc3Sc3ccccc32)n1 (stereo not drawn),32
Cc1ccc(/C(C#N)=C\c2ccc(N3CCOCC3)o2)cc1,28
Cc1ccccc1C1=C/C(=C(\SS/C(C(=O)c2ccc(OCC(=O)O)c(Cl)c2Cl)=C2\C=C(c3ccccc3C)SS2)C(=O)c2ccc(OCC(=O)O)c(Cl)c2Cl)SS1,28
c1coc(CSSCc2ccco2)c1,31
O=C(CCc1c[nH]c2ccccc12)NCCc1ccc(O)cc1,22
COc1cc(/C=N/n2cnnc2)ccc1OC(=O)c1cccnc1,20
Cc1c(NC(=O)CN2CC(C)OC(C)C2)c(=O)n(-c2ccccc2)n1C (stereo not drawn),18
C=CCn1c(SCC(=O)c2ccc(O)c(O)c2)nnc1-c1cccc(OC)c1,15
O=C(CN1CCCCC1)Nc1ccc(N2CCCCCC2)cc1,17
c1ccc2c(c1)Nc1ccncc1S2,26

# Screens from PubChem.
